From PubChem BioAssay
Autofluor counter: flagged as autofluorescent in microsphere protease counterscreen; compound autofluorescence counterscreen, microsphere flow cytometry; hits give high values; fluorescence intensity (no concentration beside the values); 3.1% of 360,000 active; AID 624483;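 active means at least 3 SD above the mean of all compounds, about 16000 in these data; inconclusive means too few beads counted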;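 further: 100 nL of 1 mM stock went into each well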
ugtP null kill: growth inhibition of S. aureus ugtP deletion strain | growth inhibition, % (no concentration beside the values) | S. aureus RN4220 ugtP deletion, OD600 growth, 16 h; some inactives read as strong as hits | 0.54% of 330,000 active;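 active means z-score under -3 and OD600 up to 0.15 on both plates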;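 further: plate controls were untreated wells for no effect and antibiotic for full effect; wells of about 80 µL received 100 nL stock; the first replicate is given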
BJeLR lethal: BJeLR cell viability loss; inhibition, % (no concentration beside the values); 0.17% of 300,000 active; BJeLR (HRASV12) viability, CellTiter-Glo ATP luminescence, 48 h; reference of the scale not given here;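 active means replicate mean above 50%; inconclusive means above 50% but judged a plate artefact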;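 further: 50 nL library stock added to about 25 µL; numbers are from one replicate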
Sa RN4220 lethal: kills Staphylococcus aureus RN4220. S. aureus RN4220 growth, OD600, 16 h. inhibition, % (no concentration beside the values). 0.33% of 330,000 active;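 active means z-score of -3 or lower and OD600 up to 0.18 on both plates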;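 further: plate controls were untreated cells for no effect and reference antibiotic for full effect; stock transfer was 100 nL into about 80 µL; one replicate is shown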
PrP 5UTR inh: inhibition of PrP 5' UTR reporter expression | cell-based PrP 5' UTR mRNA reporter, plate reader | inhibition, % (test concentration not listed) | 0.35% of 340,000 active;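 active means every replicate at 50% or more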;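 further: 0 = median of the neutral control wells; tested in H4 reporter cells; numbers are from one replicate; inactives centre near -14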
Mtb hypoxia rep: Mtb hypoxia fluorescent reporter inhibition | M. tuberculosis hypoxia-regulated fluorescent reporter, fluorescence | 0.1% of 300,000 active | fluorescence inhibition, % (concentration not given with the values);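 active means 35 to 45% if threefold the growth effect, above 45% if 1.5-fold the growth effect; inactive means the rest, general growth blockers included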;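 further: wells of about 50 µL received 100 nL stock; 0% = vehicle wells and 100% = reference inhibitor wells; whole bacteria with a GFP reporter of the hypoxia response; strong numbers were not always called active; many hits fall short of the cut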
Mtb hypoxia rep growth: further read-out of Mtb hypoxia rep, marked with its call; growth inhibition, %; measured here: M. tuberculosis growth (absorbance);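 0% = vehicle and 100% = reference antibiotic; read after six days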
Starred values were filed as active, the others as inactive; u = inconclusive; x = not tested or not shown.

Results follow in this order: Autofluor counter	ugtP null kill	BJeLR lethal	Sa RN4220 lethal	PrP 5UTR inh	Mtb hypoxia rep	Mtb hypoxia rep growth
CCOc1ccccc1C(=O)Nc1ccccc1C(N)=O
 : 23043*	-1	-1	0.0	-6	7	11
NS(=O)(=O)c1ccc(NC(=O)COC(=O)c2ncc(Cl)c(Cl)c2Cl)cc1
 : 3733	6	x	4.4	-15	6	7
CC(=O)c1nnn(-c2nc(N3CCCC3)nc(N(c3ccccc3)c3ccccc3)n2)c1C
 : 23099*	2	-12	1.3	-7	4	2
Cc1noc(C)c1S(=O)(=O)N1CCC(C(=O)Nc2ccc(OC(F)(F)F)cc2)CC1
 : 3067	-3	2	12	-7	-3	4
CC(=O)Nc1ccccc1-c1nn[nH]n1
 : 2573	-4	2	-0.2	-15	x	x
CCOc1ccc(-c2nnc(N(CC)C(=O)C3CCC3)s2)cc1
 : 2433	11	3	10	-27	x	x
CCCCc1ccc(/C(C)=N/NC(=O)C2CCCC2)cc1
 : 5921	x	6	x	-5	x	x
NS(=O)(=O)c1ccc(NC(=O)CSc2nnc(NC3CC3)s2)cc1
 : 6325	10	x	2.0	-5	12	7
Cc1cc(C(=O)CSc2nnc(-c3cccs3)n2Cc2ccccc2)c(C)n1C
 : 2636	1	-6	1.2	-22	x	x
COc1cc2c(-c3ccc(O)cc3)nc3c(c(C)nn3-c3ccccc3)c2cc1OC
 : 10825	0	x	-2.5	-3	8	-5
CCc1noc(C)c1C(=O)Oc1ccc(N(C)S(=O)(=O)c2ccc(C)c(C)c2)cc1
 : 6656	3	17	7.7	-12	3	1
NC(=O)C1CCN(CC(O)COc2ccc(-c3ccccc3)cc2)CC1 (stereo not drawn)
 : 3986	9	10	3.2	-18	7	3
NC(=O)c1ccc(NC(=O)CSc2nc3ccccc3c(=O)n2CCCN2CCOCC2)cc1
 : u	0	x	2.5	x	-6	9
COc1cc(OC)cc(C(=O)NCCn2ccc3ccccc32)c1
 : 6827	-10	0	-5.2	-12	9	11
Cc1ccc(Sc2ncccc2C(N)=O)cc1
 : 5146	4	4	1.8	11	-3	-9
O=C(NC1(O)C(=O)c2ccccc2C1=O)c1ccccc1
 : 2313	3	-11	0.2	-29	x	x
O=C(CN(CC1CCCO1)C(=O)CCC(=O)Nc1nccs1)NCC1CCCO1 (stereo not drawn)
 : 4699	-5	-17	-0.6	2	x	x
COc1ccccc1S(=O)(=O)N1CCN(S(=O)(=O)c2cccs2)CC1
 : 3547	4	x	2.7	0	-1	4
O=C(CCc1c[nH]c2ccccc12)OCc1ccc(Br)cc1
 : 6210	1	-1	4.7	2	6	3
Cc1ccc(Nc2nc(N)nc(CSc3nc4ccccc4s3)n2)cc1
 : 9763	12	-1	-7.5	-6	0	8
Fc1ccccc1/C=N/n1c(COc2ccccc2)n[nH]c1=S
 : 4967	x	-4	x	-5	x	x
O=c1[nH]c(=S)n(C2CC2)c(O)c1/C=N/N1CCOCC1
 : 8148	0	1	2.9	-19	4	4
COc1cc(/C=N/NC(=O)Nc2ccccc2)ccc1OC(C)=O
 : 2384	x	16	x	-63	x	x
COc1ccc(NC(=O)NC2(C(=O)N3CCOCC3)CCCCC2)cc1
 : 6087	4	2	3.1	-27	10	9
Cc1ccc(C(c2sc3ncnn3c2O)N2CCCCC2)cc1 (stereo not drawn)
 : 5388	-4	10	-9.5	-9	4	8
Cc1ccc2c(c1)sc1nc(=O)ccn12
 : 4365	x	3	x	-17	x	x
O=S(=O)(Oc1ccccc1C=Nn1cnnc1)c1ccccc1
 : x	6	x	3.7	x	1	-11
COC(CNC(=O)CN1CCN(Cc2ccc(F)cc2Cl)C1=O)OC
 : 3735	13	1	1.5	-20	5	3
CCC(Cc1ccccc1)NC(=O)CCNS(=O)(=O)c1cc(Br)cnc1N (stereo not drawn)
 : 5649	-3	1	1.7	-5	0	0
CS(=O)CSc1nc2c(cc1C#N)CCCC2 (stereo not drawn)
 : 6851	4	5	1.4	-5	5	-8
Fc1cccc(-c2nnn3c2nc(Cl)c2ccccc23)c1
 : 5786	-3	8	1.5	-27	6	-1
Cc1cc(C)cc(C(=O)N(C)C2CCCN(Cc3ccccc3F)C2)c1 (stereo not drawn)
 : 4558	8	3	-0.2	-21	5	2
COCc1cc(CN2CCN(CCCc3ccccc3)C(CCO)C2)ccc1OC (stereo not drawn)
 : 4234	1	6	4.3	-8	-2	8
CC(C)Cc1nnc(NC(=O)CCS(=O)(=O)c2ccc(Cl)cc2)s1
 : 6154	0	6	3.4	-39	2	1
CCOC(=O)c1nnn2c1nc(N1CCN(C)CC1)c1ccccc12
 : 4087	12	7	5.0	-15	-4	8
Oc1ccccc1C=NNc1nc2ccccc2s1
 : 3569	-6	x	-7.4	-107	12	8
CCOC(=O)C1C2COc3ccc(Br)cc3C2N2C(=O)c3c(C)cc(C)cc3NC(=O)[C@@]12C (stereo partly drawn)
 : x	2	x	-0.3	x	-2	15
CCN(CC)C(=O)COc1ccc(C(C)=NNC(=O)c2ccccc2-n2cccc2)cc1
 : x	5	x	0.9	x	5	-12
O=[N+]([O-])c1ccc(CN2CCN(c3ccc(Cl)cc3)CC2)o1
 : 3225	17	4	10	-23	x	x
CCOC(=O)/C=C1/SCC(=O)N1CC(=O)Nc1cccc(F)c1
 : 4159	1	x	2.7	-11	3	-6

(more compounds)
smiles	Autofluor counter	ugtP null kill	BJeLR lethal	Sa RN4220 lethal	PrP 5UTR inh	Mtb hypoxia rep	Mtb hypoxia rep growth
Cc1ccc(C(=O)NC(=S)Nc2ccccc2N2CCCC2)cc1[N+](=O)[O-]	2047	16	-6	4.2	-34	10	4
CS(=O)(=O)c1ccc(-c2nn[nH]n2)cc1	3282	1	2	-0.9	-6	x	x
O=C1CC(C(=O)O)S/C(=N\NC(=O)c2ccc(F)cc2)N1 (stereo not drawn)	11154	9	-8	3.9	-10	13	-6
Cc1nccn1CCOc1ccc(Cl)cc1	4147	3	-3	4.1	-9	11	2
CCN(CC)S(=O)(=O)c1ccc(/C=C/C(=O)Nc2ccc(Br)cc2F)cc1	2503	-3	8	1.4	-11	1	4
Cc1ccc(S(=O)(=O)N=C(c2ccc(F)cc2)N2CCCCC2)cc1	x	3	x	8.1	x	10	7
COc1ccc(C(=O)N2CCC(n3c(C)nc4cc(F)ccc43)CC2)cc1	5377	14	12	-3.2	-17	7	7
CCC(C)/C(C)=N/NC(=O)c1ccccc1OCCOc1ccccc1 (stereo not drawn)	2113	x	-11	x	-6	x	x
Cc1cc(C)cc(OCC(=O)Nc2cccc(-c3nnc(-c4ccco4)o3)c2)c1	10818	-18	-6	19	1	-13	4
CCN(CC)S(=O)(=O)c1cccc(C(=O)OCC(=O)C23CC4CC(CC(C4)C2)C3)c1	13880	8	-9	-1.1	-9	-1	-18
COc1cc(NC(=O)C2CCCN(S(=O)(=O)c3ccc4c(c3)CCCN4C(C)=O)C2)cc(OC)c1 (stereo not drawn)	4449	-5	-3	-2.7	1	-1	-5
COc1cc(C(=O)NNC(=O)c2ccccc2Br)ccc1OCC(=O)N1CCOCC1	u	2	-1	2.2	-4	1	1
CCCC(c1nnnn1CC1CCCO1)N1CCN(c2cc(Cl)ccc2C)CC1 (stereo not drawn)	4754	7	3	4.7	-19	x	x
COc1cc(OC)cc(C(=O)NN=Cc2ccc(OC)c(COc3ccc(F)cc3)c2)c1	x	1	x	5.8	x	-7	13
COc1ccc(C(=O)NC2CC2)cc1OC1CCN(Cc2ccc(F)cc2)CC1	6715	11	-1	-0.1	-13	12	-6
CC(=O)c1ccc(NC(=O)Cc2ccsc2)cc1	5729	7	-12	1.2	-26	0	5
COc1ccc(/C=c2\s/c(=C(/C#N)C(=O)NCc3ccco3)n(-c3ccccc3)c2=O)cc1	2113	x	-2	x	-5	x	x
CC1=CCC2(CO)COC(c3ccccc3O)C1C2 (stereo not drawn)	4645	6	-4	3.6	-28	4	0
COC(=O)c1ccc(COC(=O)C2CCN(S(=O)(=O)c3c(Cl)cccc3Cl)CC2)o1	5419	5	2	3.1	-7	10	7
CCOC(=O)C1=C(NC(=O)c2ccc(Br)o2)Nc2ccccc2N=C1	5786	-11	-3	13	-17	8	14
COc1ccc(-c2cc(C(F)(F)F)n3nc(C)cc3n2)cc1	5960	6	-2	5.5	-51	-1	4
Cc1ccc(S(=O)(=O)Nc2ccc3c(c2)CC(=O)N(C(C)CO)CC(C)C(CN(C)Cc2ccc(-c4ccccc4)cc2)O3)cc1 (stereo not drawn)	x	-10	x	-1.9	x	-3	11
CCOC(=O)C1=C(C)NC(=O)NC1c1c(C)nn(-c2ccccc2)c1Cl (stereo not drawn)	2907	7	4	-0.8	-17	18	13
CC(=O)Nc1ccc2nc(SCC(=O)N3CCOCC3)sc2c1	4786	6	8	4.7	-12	3	1

Reprinted at random: 6 records from the list, in no set order.
smiles	Autofluor counter	ugtP null kill	BJeLR lethal	Sa RN4220 lethal	PrP 5UTR inh	Mtb hypoxia rep	Mtb hypoxia rep growth
Cc1ccc(S(=O)(=O)Nc2ccc3c(c2)CC(=O)N(C(C)CO)CC(C)C(CN(C)Cc2ccc(-c4ccccc4)cc2)O3)cc1 (stereo not drawn)	x	-10	x	-1.9	x	-3	11
CCOC(=O)C1=C(NC(=O)c2ccc(Br)o2)Nc2ccccc2N=C1	5786	-11	-3	13	-17	8	14
CCOC(=O)C1=C(C)NC(=O)NC1c1c(C)nn(-c2ccccc2)c1Cl (stereo not drawn)	2907	7	4	-0.8	-17	18	13
COc1ccc(/C=c2\s/c(=C(/C#N)C(=O)NCc3ccco3)n(-c3ccccc3)c2=O)cc1	2113	x	-2	x	-5	x	x
COC(=O)c1ccc(COC(=O)C2CCN(S(=O)(=O)c3c(Cl)cccc3Cl)CC2)o1	5419	5	2	3.1	-7	10	7
CC1=CCC2(CO)COC(c3ccccc3O)C1C2 (stereo not drawn)	4645	6	-4	3.6	-28	4	0

Carrying on:
smiles	Autofluor counter	ugtP null kill	BJeLR lethal	Sa RN4220 lethal	PrP 5UTR inh	Mtb hypoxia rep	Mtb hypoxia rep growth
CCCSc1nnc(-c2c[nH]c3ccccc23)n1C	5627	10	0	2.6	-44	-1	-1
O=C(N/N=C/c1cccnc1)c1cccs1	4281	x	12	x	-23	x	x
CCN(CC)Cc1c(C(=O)OC(C)C)nnn1-c1nonc1N	2584	3	2	5.8	-13	x	x
Cc1ccc(C(=O)CSc2nnc(CNc3ccc(C)cc3C)o2)cc1	4189	-6	-8	5.8	-32	8	5
O=C(NCC(c1ccco1)N1CCCC1)c1cccc(S(=O)(=O)Nc2ccc(F)cc2)c1 (stereo not drawn)	7187	-2	x	2.8	3	2	8
Cc1cc(C(=O)CSc2nnnn2C)c(C)n1Cc1ccco1	4810	9	3	2.9	-32	-1	6
CC(C)NC(=O)c1cc2c(=O)n3ccccc3nc2s1	3669	15	-11	0.3	-36	4	9
Cc1ccc(S(=O)(=O)NC(=O)COc2ccc([N+](=O)[O-])cc2)cc1	6584	8	1	5.6	-1	-5	-4
CCOC(=O)c1ccc(NC(=O)C2CC(=O)Nc3nc4ccccc4n32)cc1 (stereo not drawn)	4178	11	8	0.1	-13	0	5
O=C(NNC(=O)c1ccccc1-c1ccccc1C(=O)O)c1ccccc1	4791	7	1	5.6	-14	x	x
CN(C(=O)COc1ccccc1)C1CCS(=O)(=O)C1 (stereo not drawn)	2490	6	-1	-0.5	-13	1	5
Cc1cccc(NC(=O)CSCC(=O)Nc2cc(S(=O)(=O)N3CCOCC3)ccc2N2CCCC2)c1	5351	5	-10	3.2	-8	3	1

In the list so far, 3 have a nitro group on carbon:
smiles	Autofluor counter	ugtP null kill	BJeLR lethal	Sa RN4220 lethal	PrP 5UTR inh	Mtb hypoxia rep	Mtb hypoxia rep growth
O=[N+]([O-])c1ccc(CN2CCN(c3ccc(Cl)cc3)CC2)o1	3225	17	4	10	-23	x	x
Cc1ccc(C(=O)NC(=S)Nc2ccccc2N2CCCC2)cc1[N+](=O)[O-]	2047	16	-6	4.2	-34	10	4
Cc1ccc(S(=O)(=O)NC(=O)COc2ccc([N+](=O)[O-])cc2)cc1	6584	8	1	5.6	-1	-5	-4
